PD-1 reverse act = activators reversing PD-1 mediated T-cell inhibition; primary human CD4 T cells, PD-L1 beads, CellTiter-Glo 96 h; 29,000 tested, under 10 active; AID 2316; activation, % (test concentration not listed);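 active = replicate mean of 50% or more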;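 also: 0% = median vehicle wells and 100% = positive control; 100 nL library stock added to about 50 µL; numbers are from one replicate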
Hedgehog inh = blocks Sonic Hedgehog signaling; Shh-LIGHT2 Gli-luciferase reporter, 30 h; inhibition, % (no concentration beside the values); 22,000 compounds, 2.1% hits;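 active = replicate mean of 65% or more; inconclusive = mean lower but half the replicates past it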;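 also: pathway switched on by Shh-conditioned medium diluted 1 in 25 in low serum; 100 nL library stock added to about 40 µL; 0% = median of neutral wells and 100% = positive control level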
YB-1 expression = YB-1 expression inhibition. U2OS, qRT-PCR YB-1 vs CDIP delta delta Cp, 16 h; stronger effect = higher value; zero = DMSO, each unit about twofold. delta delta Cp (YB-1 minus CDIP) (test concentration not listed). 30,000 compounds, 0.37% hits. AID 434959;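 active = delta delta Cp rounded down to an integer at or above 3, about 3 SD of DMSO wells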;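 also: higher means less YB-1 transcript or more CDIP transcript relative to DMSO; stock transfer was 100 nL into about 100 µL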
MITF inh = MITF inhibition. TRPM1 promoter luciferase, luminescence, 24 h. inhibition, % (no concentration beside the values). 37,000 compounds, 0.28% hits;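 active = most replicates at 85% or more, or half of them and the mean; inconclusive = half reach 85% but not the mean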;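 also: human melanocyte line stably carrying TRPM1 promoter luciferase reporter; 0% = vehicle wells and 100% = a positive control; the first replicate is given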
* = called active by the depositor; ? = inconclusive; . = not tested or not shown. Not all compounds are listed (hit frequency here may not be typical).

SMILES	PD-1 reverse act	Hedgehog inh	YB-1 expression	MITF inh
C[C@H]1CN([C@@H](C)CO)C(=O)c2cccc(NC(=O)c3ccc(-c4nccs4)cc3)c2O[C@H]1CN(C)C(=O)NC1CCCCC1	2.0	-131.1	-0.126	-4.9
CCn1c(SCC(=O)c2c[nH]c3ccccc23)nnc1-c1cccs1	-1.1	.	.	13.6
C[C@@H]1CN([C@@H](C)CO)C(=O)Cc2cc(NC(=O)C3CC3)ccc2O[C@@H]1CN(C)Cc1ccc(-c2ccccc2)cc1	.	31.6	-0.246	29.9
C[C@@H]1CN([C@H](C)CO)C(=O)c2cc(NC(=O)CCN3CCOCC3)ccc2O[C@H]1CN(C)CC1CCCCC1	.	.	-0.702	0.9
CCc1ccccc1NC(=O)CSc1ncnc2sc(C)c(C)c12	-0.3	.	.	-22.5
Cc1noc(C)c1S(=O)(=O)Nc1ccc2c(c1)CC(=O)N([C@@H](C)CO)C[C@@H](C)[C@@H](CN(C)Cc1ccncc1)O2	-0.2	-27.3	0.244	-4.0
C[C@@H]1CN([C@@H](C)CO)C(=O)c2cc(NC(=O)Nc3ccc(F)cc3)ccc2O[C@H]1CN(C)C(=O)Nc1cccc2ccccc12	-2.1	13.3	0.565	-1.1
C[C@@H]1CN([C@H](C)CO)C(=O)Cc2cc(NC(=O)C3CC3)ccc2O[C@H]1CN(C)Cc1ccc(C(=O)Nc2ccccc2N)cc1	-4.4	.	-0.242	-12.3
COc1ccc(NC(=O)Nc2ccc3c(c2)C(=O)N([C@H](C)CO)C[C@H](C)[C@@H](CN(C)C)OCCCC[C@@H](C)O3)cc1	0.8	14.8	0.174	-3.7
CNC[C@H]1Oc2c(NC(=O)Nc3c(C)noc3C)cccc2C(=O)N([C@H](C)CO)C[C@@H]1C	1.2	-15.2	1.07	1.3
C/C=C/C(O)C(C)CC(C)C(OC(=O)CCC(=O)O)C(C)/C=C/C=C/C=C(\C)C(=O)O (stereo not drawn)	-2.7	8.2	-0.725	25.2
O=C(OCc1cccc(O)c1O[C@@H]1O[C@H](CO)[C@@H](O)[C@H](O)[C@H]1O)C1(O)C(=O)C2C3C4C5C(C(=O)C(O)(C(=O)OCc6cccc(O)c6O[C@@H]6O[C@H](CO)[C@@H](O)[C@H](O)[C@H]6O)C2C53)C41 (stereo partly drawn)	.	1.5	0.492	.
COc1ccc(NC(=O)Nc2ccc3c(c2)C(=O)N([C@H](C)CO)C[C@@H](C)[C@@H](CN(C)CC2CCCCC2)O3)cc1	2.0	.	-0.101	-9.9
O=C(NCCC(c1ccccc1)c1ccccc1)c1cc2ccccc2c(=O)o1	0.2	-29.5	-0.479	2.0
CC(C)NC(=O)N(C)C[C@H]1Oc2ccc(NC(=O)NC3CCCCC3)cc2C(=O)N([C@@H](C)CO)C[C@H]1C	2.2	.	0.189	-0.7
COc1ccc(-n2c(SCC(=O)Nc3ccccc3OC)nc3sc4c(c3c2=O)CCCC4)cc1	0.7	.	.	-7.0
C[C@H]1CN([C@@H](C)CO)C(=O)c2cccc(NC(=O)Nc3cccc4ccccc34)c2O[C@H]1CN(C)Cc1ccc(-c2ccccc2)cc1	0.0	8.7	-0.0501	6.0
CC(C)Cc1nc(SCC(=O)Nc2ccc3ccccc3c2)n[nH]1	-0.3	.	.	-41.6
Cc1ccc(S(=O)(=O)N(C)C[C@H]2Oc3ccc(NC(=O)Nc4ccccc4)cc3C(=O)N([C@H](C)CO)C[C@H]2C)cc1	0.2	-11.9	0.186	5.5
Cc1ccc(OCCCn2c(CO)nc3ccccc32)cc1	-2.2	.	.	-37.8
Cc1noc(C)c1NC(=O)Nc1ccc2c(c1)C(=O)N([C@H](C)CO)C[C@H](C)[C@@H](CN(C)Cc1ccc(C(=O)Nc3ccccc3N)cc1)O2	1.3	.	0.0238	0.6
C[C@@H]1CN([C@@H](C)CO)C(=O)c2cc(NC(=O)Cc3cn(C)c4ccccc34)ccc2O[C@H]1CN(C)Cc1ccc(C(=O)Nc2ccccc2N)cc1	-1.5	.	0.067	18.6
Cc1noc(C)c1NC(=O)Nc1ccc2c(c1)C(=O)N([C@@H](C)CO)C[C@@H](C)[C@H](CN(C)C(=O)Nc1ccc(F)cc1)O2	1.9	-77.4	-0.031	-15.7
COc1ccc(NC(=O)COc2ccc(C(C)(C)C)cc2Br)c([N+](=O)[O-])c1	-0.2	.	.	17.2
CC1=CCC[C@@H]2[C@@](C)(CCc3ccoc3)[C@H](C(=O)O)CC[C@@]12C	-1.0	-36.2	-0.614	9.0
C[C@@H]1CCCCO[C@@H](CN(C)C(=O)Nc2cccc3ccccc23)[C@@H](C)CN([C@H](C)CO)C(=O)c2cc(NC(=O)Nc3ccc(C(F)(F)F)cc3)ccc2O1	0.6	15.0	0.0979	-22.9
COC(=O)c1ccccc1NC(=O)CSc1nnc(-c2ccc(OC)cc2)n1C	1.7	.	.	5.9
C[C@H]1CN([C@@H](C)CO)C(=O)c2cc(NC(=O)Nc3ccc(C(F)(F)F)cc3)ccc2O[C@@H]1CN(C)C(=O)Nc1cccc2ccccc12	-3.6	4.0	-0.198	7.0
O=C(O)Cc1ccc(NC(=O)CN2C(=O)c3ccccc3C2=O)cc1	1.9	.	.	-6.2
C[C@@H]1CN([C@H](C)CO)C(=O)c2cccc(NS(=O)(=O)c3cccs3)c2O[C@H]1CN(C)Cc1ccc(Oc2ccccc2)cc1	.	-2.7	0.0804	-0.9

Quoted at random: 6 records from the list, in no set order.
SMILES	PD-1 reverse act	Hedgehog inh	YB-1 expression	MITF inh
CC(C)Cc1nc(SCC(=O)Nc2ccc3ccccc3c2)n[nH]1	-0.3	.	.	-41.6
C[C@H]1CN([C@@H](C)CO)C(=O)c2cccc(NC(=O)Nc3cccc4ccccc34)c2O[C@H]1CN(C)Cc1ccc(-c2ccccc2)cc1	0.0	8.7	-0.0501	6.0
CC1=CCC[C@@H]2[C@@](C)(CCc3ccoc3)[C@H](C(=O)O)CC[C@@]12C	-1.0	-36.2	-0.614	9.0
COc1ccc(-n2c(SCC(=O)Nc3ccccc3OC)nc3sc4c(c3c2=O)CCCC4)cc1	0.7	.	.	-7.0
C[C@@H]1CCCCO[C@@H](CN(C)C(=O)Nc2cccc3ccccc23)[C@@H](C)CN([C@H](C)CO)C(=O)c2cc(NC(=O)Nc3ccc(C(F)(F)F)cc3)ccc2O1	0.6	15.0	0.0979	-22.9
Cc1noc(C)c1NC(=O)Nc1ccc2c(c1)C(=O)N([C@@H](C)CO)C[C@@H](C)[C@H](CN(C)C(=O)Nc1ccc(F)cc1)O2	1.9	-77.4	-0.031	-15.7

Continuation:
SMILES	PD-1 reverse act	Hedgehog inh	YB-1 expression	MITF inh
CNC[C@H]1Oc2ccc(NS(C)(=O)=O)cc2C(=O)N([C@H](C)CO)C[C@@H]1C	1.0	-20.0	-0.333	-3.2
COc1ccc(S(=O)(=O)N(C)C[C@@H]2Oc3ccc(NC(=O)Nc4ccccc4)cc3C(=O)N([C@H](C)CO)C[C@H]2C)cc1	-1.7	.	-0.227	-12.5
COc1ccc(S(=O)(=O)Nc2ccc3c(c2)CC(=O)N([C@@H](C)CO)C[C@@H](C)[C@@H](CN(C)S(=O)(=O)c2ccc(OC)cc2)O3)cc1	0.4	?	0.314	-13.4
Cc1ccc(SC(C)C(=O)Nc2ccc(C(C)(C)C)cc2)cc1 (stereo not drawn)	-0.2	-36.8	0.439	-80.0
C[C@H](CO)N1C[C@H](C)[C@@H](CN(C)Cc2ccncc2)Oc2ccc(NC(=O)NC3CCCCC3)cc2C1=O	0.2	-20.2	0.228	2.3
O=C(CSc1nc2ccccc2s1)NC1CCCCC1	0.2	.	-0.121	-59.4
Cc1ccc(S(=O)(=O)N(C)C[C@H]2Oc3ccc(NC(=O)C4CCCCC4)cc3C(=O)N([C@H](C)CO)C[C@H]2C)cc1	0.1	-15.3	0.192	-7.1
O=C(c1cccs1)N1CCCn2c(SCc3ccccc3)nnc21	-0.2	-8.9	-0.19	-17.2
C[C@@H]1CN([C@H](C)CO)C(=O)c2cccc(NC(=O)CCCCCC(=O)Nc3ccccc3N)c2O[C@@H]1CN(C)C(=O)Nc1ccccc1	1.6	.	0.438	7.0
N#Cc1ccccc1NC(=O)CS(=O)(=O)Cc1ccccc1	-1.1	.	.	-29.1
C[C@H](CO)N1C[C@H](C)[C@H](CN(C)S(=O)(=O)c2ccccc2)Oc2ccc(NC(=O)Nc3ccc4c(c3)OCO4)cc2C1=O	-1.9	-13.0	-0.302	-45.4
C[C@@H]1CN([C@H](C)CO)C(=O)c2cccc(NC(=O)Nc3cccc4ccccc34)c2O[C@@H]1CN(C)C(=O)NC1CCCCC1	-1.4	-11.7	0.0762	67.8
Cc1ccc(NC(=O)CSc2n[nH]c(-c3ccccc3)n2)c(C)c1	0.1	.	.	5.8
C[C@H](CO)N1C[C@H](C)[C@@H](CN(C)C)Oc2ccc(NC(=O)NC3CCCCC3)cc2C1=O	0.5	23.4	0.0132	8.7
Cc1ccc(S(=O)(=O)N(C)C[C@@H]2Oc3ccc(NC(=O)Nc4ccc(F)cc4)cc3CC(=O)N([C@H](C)CO)C[C@@H]2C)cc1	-0.7	37.6	-0.0322	47.4
C[C@@H]1CCCCO[C@@H](CN(C)C(=O)CCCN(C)C)[C@@H](C)CN([C@H](C)CO)C(=O)c2cc(NC(=O)Nc3ccc(F)cc3)ccc2O1	0.5	.	-0.00213	-8.8
CCOC(=O)CSc1nc(Nc2ccc(OC)cc2)c2cnc(N(CC)CC)nc2n1	-5.1	26.9	0.2	8.2
COc1ccc(S(=O)(=O)N2Cc3ccccc3CC2C(=O)Nc2sc3c(c2C#N)CCCC3)cc1 (stereo not drawn)	-1.0	.	.	9.3
C[C@H](CO)N1C[C@H](C)[C@H](CN(C)Cc2ccc(Cl)c(Cl)c2)Oc2ccc(NC(=O)CCC(F)(F)F)cc2CC1=O	0.4	7.8	0.14	-0.9
O=[n+]1c(CO)c(CO)n([O-])c2ccccc21	0.9	-17.5	-0.0371	3.5
COc1ccc(S(=O)(=O)N(C)C[C@H]2Oc3c(NS(=O)(=O)c4ccc(F)cc4)cccc3C(=O)N([C@H](C)CO)C[C@H]2C)cc1	-5.5	-28.9	-1.5	-10.7
C[N+]12CCCCC1C(CN1C(=O)c3ccccc3C1=O)CCC2 (stereo not drawn)	0.4	.	-0.5	13.5
C[C@H](CO)N1C[C@H](C)[C@@H](CN(C)C(=O)Nc2ccccc2)Oc2ccc(NS(=O)(=O)c3cn(C)cn3)cc2C1=O	0.8	21.6	0.257	-0.6
N=c1n(CC(=O)c2ccco2)c2ccccc2n1Cc1ccccc1	1.0	41.3	0.0564	-12.7
N#Cc1c(C(F)(F)F)cc(-c2cccs2)nc1S/C=C/C(=O)c1ccccc1	-2.8	-26.4	0.253	5.0
Cc1cc(SCC(=O)N2CCC(c3noc4ccc(F)cc34)CC2)nc2ccccc12	-1.8	.	.	5.3
C[C@@H]1CN([C@@H](C)CO)C(=O)c2cccc(NC(=O)Nc3ccccc3)c2O[C@H]1CN(C)C(=O)Nc1ccccc1	0.0	-2.0	0.182	9.4
Cc1noc(C)c1NC(=O)Nc1cccc2c1O[C@@H](CN(C)C(=O)NC1CCCCC1)[C@H](C)CN([C@H](C)CO)C2=O	-1.2	-35.9	0.209	-16.1
CCOC(=O)N1CCC(NC(=O)CCCC(=O)O)CC1	0.0	.	0.421	-24.5
N#CNC(=NC1CCCCC1)NC1CCCCC1	-0.3	-5.8	-0.565	-6.0
C[C@@H]1CN([C@@H](C)CO)C(=O)c2cc(NC(=O)Cc3cn(C)c4ccccc34)ccc2O[C@@H]1CN(C)Cc1ccncc1	-2.7	20.0	0.774	23.4
C[C@@H]1CN([C@H](C)CO)C(=O)Cc2cc(NC(=O)C3CC3)ccc2O[C@@H]1CN(C)S(=O)(=O)c1ccc(Cl)cc1	1.6	-50.7	-0.405	-6.8
C[C@H](CO)N1C[C@H](C)[C@@H](CN(C)C(=O)Nc2ccc(C(F)(F)F)cc2)Oc2c(NC(=O)c3ccc(-c4nccs4)cc3)cccc2C1=O	-0.6	0.5	0.518	-6.4
C[C@@H]1CN([C@@H](C)CO)C(=O)c2cc(NC(=O)Nc3ccc(C(F)(F)F)cc3)ccc2O[C@@H]1CN(C)Cc1ccc(C(F)(F)F)cc1	-7.2	17.9	-0.316	101.0*
COc1ccccc1CC(=O)Nc1ccc(-c2noc(-c3ccc(Cl)cc3)n2)cc1	-0.4	.	.	6.8
Cc1nn(Cc2nnc(-c3cc(C(F)(F)F)cc(C(F)(F)F)c3)o2)c(C)c1Br	-0.5	-29.5	-0.258	2.5
COc1ccc(Cl)c(Cn2c(NCc3ccccn3)nc3c2c(=O)n(C)c(=O)n3C)c1	-2.3	.	.	14.9
COc1ccc(S(=O)(=O)N(C)C[C@H]2Oc3ccc(NC(=O)NC4CCCCC4)cc3C(=O)N([C@H](C)CO)C[C@@H]2C)cc1	-1.0	.	-0.0172	-2.1
C[C@@H]1CN([C@H](C)CO)C(=O)c2cc(NC(=O)Nc3cccc4ccccc34)ccc2O[C@H]1CN(C)Cc1ccc(Cl)c(Cl)c1	-2.5	.	0.0338	19.2
O=C(OCC1CC(c2ccccc2)=NO1)c1cccc(C(=O)OCC2CC(c3ccccc3)=NO2)n1 (stereo not drawn)	0.2	-20.3	-0.387	-3.5

Screens: PubChem, Broad Institute
